# Source: PubChem (National Center for Advancing Translational Sciences (NCATS))
# RE007 growth inh: qHTS Assay for Inhibitors of the HIV-1 protein Vpr | AID 651644, 2012 | S. pombe RE007 Vpr strain, BacTiter-Glo ATP luminescence, 24 h; control for the full effect not named in the record | Potency, µM (top dose mostly 92.2 µM), for the others: top-dose activity change, negative = less growth | actives 0.21% (n = 360,000); active = well fitted falling curve with a large enough effect; inconclusive = small, poorly fitted or top-dose-only effect; inactive = no such curve, though single readings can be large or run the other way;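 also: % is scaled to controls: 0 for no effect and ±100 for the full control effect; nearly all actives have a fitted effect of over 50% in size; the assay follows cell death caused by Vpr and the record does not say whether a fall means rescue or toxicity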
#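 Fission yeast RE007 carrying one integrated HIV-1 vpr copy, seeded at OD 0.01 in PMG+AL medium with 23 nL pinned compound. Grown 24 h at 30 degrees; viability read by BacTiter-Glo luminescence after 5 min.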
# Cruzain inh Det: qHTS Assay for Promiscuous and Specific Inhibitors of Cruzain (with detergent). Cruzipain (Trypanosoma cruzi), P25779. purified cruzain, Z-FR-AMC fluorescence, 0.01% Triton. Potency, µM, for inactives: max response, negative = inhibition, usual class: inhibitors. actives 0.43% (n = 200,000). AID 1478, 2009;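 also: plate controls were neutral wells for no effect and buffer without enzyme for full effect; nearly all actives have a fitted effect of over 40% in size; top concentration of the series not given in the record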
# Target sequence (P25779 123-467 limits assumed): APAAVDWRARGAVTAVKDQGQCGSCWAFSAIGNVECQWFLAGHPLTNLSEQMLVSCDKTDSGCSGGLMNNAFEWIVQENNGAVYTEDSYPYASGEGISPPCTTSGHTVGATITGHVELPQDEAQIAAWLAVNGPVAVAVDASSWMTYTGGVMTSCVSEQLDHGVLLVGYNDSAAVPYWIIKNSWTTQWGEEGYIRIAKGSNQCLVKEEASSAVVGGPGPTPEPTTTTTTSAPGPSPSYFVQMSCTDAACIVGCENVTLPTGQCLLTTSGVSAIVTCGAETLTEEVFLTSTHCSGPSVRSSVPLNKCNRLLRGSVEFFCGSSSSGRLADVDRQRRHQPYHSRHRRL
#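 Steps: dispense cruzain (1.5 nM final) in acetate buffer pH 5.5 with DTT and 0.01% Triton X-100; pin-transfer compounds; incubate 15 min RT; add Z-FR-AMC (2 uM final); read fluorescence every 30 s, using the 60 s intensity change.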
# SARS PLP yeast: qHTS of Yeast-based Assay for SARS-CoV PLP; actives 0.19% (n = 330,000); S. cerevisiae expressing SARS-CoV PLpro, growth rescue; control for the full effect not named in the record; AID 485353, 2010; Potency, µM (doses to about 32.9 µM), without a hit: at the highest dose activity, positive = growth rescue; active means well fitted rising curve with a large enough effect; inconclusive means small, poorly fitted or top-dose-only effect; inactive means no such curve, though single readings can be large or run the other way; also: 0% is about no effect; nearly all actives have a fitted effect of over 55% in size; growth read by luminescence after 48 h
# Cruzain inh noDet: qHTS Assay for Promiscuous and Specific Inhibitors of Cruzain (without detergent); actives 2.3% (n = 200,000); Cruzipain (Trypanosoma cruzi), P25779; Potency, µM, for the others: max response, negative = inhibition, usual class: inhibitors; purified cruzain, Z-FR-AMC fluorescence, no detergent;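 also: plate controls were enzyme without inhibitor for no effect and buffer without enzyme for full effect; nearly all actives have a fitted effect of over 40% in size; top concentration of the series not given in the record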
#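 Purified cruzain at 1.5 nM, pre-incubated 15 min with compound at room temperature in 100 mM sodium acetate pH 5.5, 5 mM DTT, 0.00005% Triton X-100. Reaction started with 2 uM Z-FR-AMC; AMC fluorescence increase over 60 s gives rate.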
# Lassa entry inh: qHTS for Inhibitors of binding or entry into cells for Lassa Virus | Lassa virus pseudotype entry inhibition, cell reporter; control for the full effect not named in the record | Potency, µM (series often up to 37.9 µM), for inactives: at the top dose activity change, negative = inhibition, usual class: inhibitors | actives 1.2% (n = 300,000) | AID 540256, 2011; active means well fitted inhibition curve with a large enough effect; inconclusive means small, poorly fitted or top-dose-only effect, or effect the other way; inactive means flat fitted curve, though single readings scatter; tested in HEK293 cells; also: % is scaled to controls: 0 for no effect and ±100 for the full control effect; nearly all actives have a fitted effect of over 50% in size; luciferase read-out
# StopGo reporter: High Throughput Screening for Foot and Mouth Disease Virus Antivirals. human cells with a luciferase reporter of 2A StopGo recoding; control for the full effect not named in the record. Potency, µM (titrated, usually from 57.9 µM), without a hit: at the highest dose signal change, negative = less light. actives 1.2% (n = 410,000); active = well fitted falling curve with a large enough effect; inconclusive = small, poorly fitted or top-dose-only effect; inactive = no such curve, though single readings can be large or run the other way; tested in HEK293T cells; also: % is scaled to controls: 0 for no effect and ±100 for the full control effect; nearly all actives have a fitted effect of over 45% in size; luciferase light after 4 h
# Marburg entry inh: qHTS for inhibitors of binding or entry into cells for Marburg Virus; Marburg virus pseudotyped entry inhibition, cell reporter; control for the full effect not named in the record; about a third of the inactives were read at about 46 µM; AID 540276, 2011; Potency, µM (titrated, usually from 37.8 µM), for inactives: at the highest dose activity change, negative = inhibition, most hits filed as inhibitors; actives 1.8% (n = 300,000); active = well fitted inhibition curve with a large enough effect; inconclusive = small, poorly fitted or top-dose-only effect, or effect the other way; inactive = flat fitted curve, though single readings scatter; tested in HEK293 cells; about a fifth of its hits are not listed in these tables; also: % is scaled to controls: 0 for no effect and ±100 for the full control effect; luciferase read-out
# NS1 inh: qHTS Assay for Inhibitors of Influenza NS1 Protein Function; S. cerevisiae slowed by influenza A NS1, growth recovery by OD600; Potency, µM (top dose mostly 46.1 µM), inactives show at the highest dose activity, positive = more growth; AID 2326, 2010; actives 0.4% (n = 270,000); active means well fitted rising curve with a large enough effect; inconclusive means small, poorly fitted or top-dose-only effect; inactive means no such curve, though single readings can be large or run the other way; also: nearly all actives have a fitted effect of over 50% in size
#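 Compounds were scored for reversing the slow growth caused by influenza A NS1 in S. cerevisiae, measured by optical density at 600 nm. Assay medium contained 2% galactose at pH 6.0; NS1-free yeast of the same strain were the positive control.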
# * marks the source's active call; other numbers are inactive results; ? = inconclusive; · = no result given; & = joins results of further samples; [ ] = dose if it differs, or a comment. Unless noted, calls follow the shape of the dose curve; as a rule, active = well fitted curve in the direction sought with a large enough effect; inconclusive = small, poorly fitted or top-dose-only effect, or another doubt; inactive = no such curve, though single readings can be large; an effect the other way counts as inactive or inconclusive. Potency is read from the fitted curve at half-maximal effect. Rows are unselected. Share with any hit: about 4.7%.
# Each structure is followed by: RE007 growth inh	Lassa entry inh	NS1 inh	SARS PLP yeast	StopGo reporter	Cruzain inh noDet	Cruzain inh Det	Marburg entry inh
COc1ccc(OC)c(NC(=O)c2cnc(Nc3ccc(C)c(Cl)c3)c3ccccc23)c1
  ·	-16%[46.1 µM]	·	·	8%	6.3µM*	-4.1%	-22%[46.1 µM]
CCOC(=O)N1CCN(S(=O)(=O)c2ccc3[nH]c(=O)oc3c2)CC1
  6%	-11%[46.1 µM]	-1%	0%	0%	·	·	3%[46.1 µM]
CCn1cc(CN2CCC(n3nccc3NC(=O)CCCc3ccccc3)CC2)c(C)n1
  -14%	15%[46.1 µM]	-7%	-1%	-9%	·	·	-15%[46.1 µM]
CCn1c(=O)c2sccc2n(CC(=O)NC2CCCCC2)c1=O
  12%	8%	3%	0%	-2%	·	·	-5%[46.1 µM]
COc1ccccc1CNC(=O)CN(C)S(=O)(=O)c1ccc2c(c1)c(=O)n(C)c(=O)n2C
  -15%	-1%[46.1 µM]	-2%	1%	-13%	·	·	-26%[46.1 µM]
COc1ccccc1CN(C)CC(=O)Nc1cccc2ccccc12
  5%	?	-10%	-3%	-18%	·	·	?
COc1ccc(-c2cc(C(=O)Oc3ccc(C#N)cc3)no2)cc1
  ·	7%[46.1 µM]	·	·	0%	5%	-1.9%	4%[46.1 µM]
CC12CC(c3ccccc3O1)C(C(=O)OCc1ccccc1)C(=O)N2 (centres undefined)
  9%	-10%	1%	1%	-14%	6%	-2.2%	13%&13%
Cc1c(Cl)cccc1-c1ccc(/C=C(\C#N)c2nc3ccccc3[nH]2)o1
  ·	?	·	·	-17%	?	-1.5%	?
NS(=O)(=O)c1ccc2nc(NC(=O)c3ccc4ncsc4c3)sc2c1
  -3%	-3%	5%	0%	17%	·	·	-20%
O=C(O)c1ccc(NS(=O)(=O)c2ccc(Cl)c(C(=O)Nc3ccccc3[N+](=O)[O-])c2)cc1
  -3%	·	11%	-1%	-9%	·	·	·
COc1cc(OC)cc(-c2nnc(SCC(=O)N3c4ccccc4Sc4ccccc43)o2)c1
  -1%	12%	-16%	·	?	·	·	1%&1%
COc1ccccc1/C=C/C=N/NC(=O)Cc1cccs1
  1%	0.12µM*	19%	7%	46%[activator]	-8%	-4.0%	?
O=C(c1ccncc1)N1CCN(S(=O)(=O)c2cccc(F)c2)CC1
  4%	4%	10%	1%	-17%	·	·	18%
CC(C)OC(=O)C(CC(=O)O)N1CCOCC1 (centres undefined)
  11%	7%	-20%	6%	2%	-8%	-0.4%	11%
CC(C)CCn1c(=O)c(C(=O)NCc2ccc3c(c2)OCO3)c(O)c2ccccc21
  1%	16%	?	-1%	2%	·	·	?
Cc1ccc(C(=O)NCCn2cc(SCC(=O)Nc3nnc(C)s3)c3ccccc32)cc1
  -6%	·	2%	6%	?	12%	-5.3%	-1%
CC1CCCN(c2cc3c(cc2[N+](=O)[O-])C(=O)N(c2ccccc2)C3=O)C1 (centres undefined)
  -3%	?	7%	3%	-13%	0%	-3.1%	10%
COCCn1cnnc1SCC(=O)Nc1sccc1C(N)=O
  -16%	-5%	12%	-3%	2%	·	·	-9%[46.1 µM]
O=C(Cc1ccc(F)cc1)N1CCC(c2nc3c(nnn3Cc3ccc(F)cc3)c(=O)[nH]2)CC1
  ·	-7%[46.1 µM]	·	·	-26%	?	-4.8%	·

# Next part, overlapping the part above by 4 compounds.
# Each structure is followed by: RE007 growth inh	Lassa entry inh	NS1 inh	SARS PLP yeast	StopGo reporter	Cruzain inh noDet	Cruzain inh Det	Marburg entry inh
Cc1ccc(C(=O)NCCn2cc(SCC(=O)Nc3nnc(C)s3)c3ccccc32)cc1
  -6%	·	2%	6%	?	12%	-5.3%	-1%
CC1CCCN(c2cc3c(cc2[N+](=O)[O-])C(=O)N(c2ccccc2)C3=O)C1 (centres undefined)
  -3%	?	7%	3%	-13%	0%	-3.1%	10%
COCCn1cnnc1SCC(=O)Nc1sccc1C(N)=O
  -16%	-5%	12%	-3%	2%	·	·	-9%[46.1 µM]
O=C(Cc1ccc(F)cc1)N1CCC(c2nc3c(nnn3Cc3ccc(F)cc3)c(=O)[nH]2)CC1
  ·	-7%[46.1 µM]	·	·	-26%	?	-4.8%	·
Cc1cc(C(=O)CSc2nnnn2-c2ccc(Cl)cc2)c(C)n1CC1CCCO1 (centres undefined)
  -5%	?	2%	-1%	·	?	3.8%	?
COCCNC(=O)CN1C(=O)NC2(CCOc3ccccc32)C1=O (centres undefined)
  -6%	3%[46.1 µM]	5%	-6%	-9%	·	·	5%[46.1 µM]
O=C(Nc1cccc(Cl)c1)c1c(O)c2c(n(Cc3ccco3)c1=O)CCCC2
  7%	?	?	5%	7%	7.9µM*	-2.3%	14%
CC(=O)c1cccc(NC(=O)CC(C)n2ccnc2)c1 (centres undefined)
  30%	?	-2%	1%	-9%	·	·	4%[46.1 µM]
COc1ccc(CNc2nc3c(-c4ccccc4)nnn3c3ccccc23)cc1
  ·	20%[46.1 µM]	·	·	5%	5%	-0.5%	30%[46.1 µM]
Cc1ccc(Cn2nc(C)c(NC(=O)CCCn3nc([N+](=O)[O-])c(Cl)c3C)c2C)cc1
  10%	?	-4%	19%	-20%	?	-0.7%	-19%
CCOc1cc(S(=O)(=O)NCc2ccccc2)ccc1Br
  10%	5%[46.1 µM]	-2%	0%	21%	·	·	10%
Cc1ccc(NC(=O)CSc2nnc(C3COc4ccccc4O3)o2)c(Cl)c1 (centres undefined)
  13%	4%[46.1 µM]	·	0%	-7%	·	·	-1%[46.1 µM]
CCOCc1nc(N)[nH]c(=O)c1Cc1ccc(OC(C)C)cc1
  8%	0%	17%	-10%	44%[activator]	0%	-0.4%	13%
CN1CCN(C(c2cccc(Cl)c2)c2ccccc2Cl)CC1 (centres undefined)
  -14%	?	-13%	-8%	-25%	10%	-4.4%	?
Cn1nc(-c2ccc(C(=O)N3CCN(CCO)CC3)cc2)c2ccccc2c1=O
  -8%	-24%	-2%	7%	1%	-6%	0.1%	-2%
COc1ccc(N2CCN(C(=O)c3ccc(CS(=O)c4cccc(C)c4)o3)CC2)cc1 (centres undefined)
  -11%	-20%[46.1 µM]	0%	0%	?	4%	-0.9%	·
CCCC(=O)NCCCCNC(=O)CCC
  7%	-2%	1%	0%	3%	0%	7.0%	13%
O=C(Cn1ncc2c([nH]c3ccccc32)c1=O)Nc1ccc(CN2CCCCC2)cc1
  -10%	·	-15%	-6%	-1%	·	·	·
Cc1ccc(NC(=O)c2ncn[nH]2)cc1
  -10%	7%	-2%	12%	28%	·	·	-10%[46.1 µM]
CC(=O)Nc1ccc(SC[C@H](CC(C)C)N2CCN(CCc3ccccc3)CCC2=O)cc1
  -4%	·	-3%	2%	-8%	·	·	·
O=C(O)c1ccc(Nc2nc(-c3ccccc3)cs2)cc1
  4%	?	·	1%	-13%	·	·	?
CCN(CC)S(=O)(=O)c1ccc(-c2csc(C)n2)s1
  -5%	?	-7%	0%	-18%	·	·	11%[46.1 µM]
Cc1ccc(NC(=O)CC2NCCN(Cc3ccccc3)C2=O)cc1 (centres undefined)
  -1%	5%	-3%	0%	6%	·	·	5%
O=C(CC1NCCc2ccccc21)Nc1ccc(Oc2ccccc2)cc1 (centres undefined)
  1%	6%	·	-3%	?	·	·	?
O=C(O)C1CC=CCC1C(=O)NCCc1cccc(Cl)c1 (centres undefined)
  1%	4%	13%	20%	-16%	2%	5.7%	2%
CCOC(=O)c1ccc(N2CCOCC2)c(NC(=O)c2c(-c3ccccc3)noc2C)c1
  -13%	?	-4%	-1%	-13%	·	·	1.8µM*
CC(C)OC(=O)CC1=NC(=O)CS1
  14%	16%	7%	2%	-18%	-7%	1.6%	-3%
CCCc1c(NC(=O)Nc2ccc(F)cc2)cnn1-c1ccccc1
  9%	·	-1%	1%	5%	·	·	·
C=CCSc1nc2ccccc2n1S(=O)(=O)c1ccc(Cl)cc1
  -2%	9%	·	·	-3%	·	·	?
Cc1cc(NC(=O)c2cncc(Br)c2)no1
  11%[3.69 µM]	-1%	1%	-2%	15%	-3%	-1.2%	-2%
Cc1ccccc1C(=O)Nc1cc(NC(=O)c2ccccc2C)cc(C(=O)O)c1
  5%	24%	?	1%	-14%	·	·	4%
Cc1ccc(-n2nc3c(n2)/C(=N/O)CC/C3=N\O)cc1
  ?	?	0%	-35%	0%	-7%	-1.6%	?
CCn1c2ccccc2c2cc(C3N=C(N)Nc4nc5ccccc5n43)ccc21 (centres undefined)
  6%	-17%	6%	-8%	·	14%	18%	1%
COc1cccc(C(c2nnnn2Cc2ccc(F)cc2)N2CCC(C(N)=O)CC2)c1OC (centres undefined)
  -11%	1%	-53%	-3%	39%[activator]	12%	3.5%	-7%
CCc1cccc(NC(=O)c2ccc(CNc3c(N4CCCC4)c(=O)c3=O)cc2)c1
  16%	1%	1%	1%	-21%	·	·	-5%[46.1 µM]
Cc1ccc(C)c(NC(=S)NNC(=O)c2csc(C)c2C)c1
  18%	17%	20%	-7%	-13%	-7%	-2.5%	?
C=CCn1c(=O)c(C(=O)Nc2cc(C)ccn2)c(O)c2ccccc21
  -8%	-3%	-8%	-6%	-2%	·	·	-4%
O=C(c1ccc2[nH]c(=O)c(=O)[nH]c2c1)N1CCN(c2ccccc2)CC1
  8%	10%[46.1 µM]	11%	4%	-8%	·	·	?
